# CDC25B CDK2 inh: primary biochemical HTRF screen for blockers of M-phase inducer phosphatase 2 binding to CDK2/cyclin A. P30305+P24941. z-score (no concentration beside the values). hit rate 0.72% among 94,000. AID 1259370, 2018. HTRF CDC25B-CDK2/CyclinA binding, anti-His/anti-Flag; stronger effect = higher value;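 further: score is relative to mean and SD of negative controls; strong numbers were not always called active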
# TAR Tat displ: TAR RNA-Tat peptide displacers, HIV-1, primary screen, biochemical, FRET, FAM/TAMRA-labeled Tat; HIV-1 TAR RNA, Tat peptide displacement FRET; stronger effect = higher value; z-score (concentration not given with the values); hit rate 0.6% among 100,000;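 further: score is relative to mean and SD of negative controls; some compounds called inactive have numbers as strong as hits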
# * marks the source's active call; other numbers are inactive results; · = not tested or not shown.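 How the source made its calls: active means z-score from 3 up in half or more of its runs; inactive means the rest.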
SMILES,CDC25B CDK2 inh,TAR Tat displ
COc1ccccc1C1Nc2ccccc2NC2=C1C(=O)CC(c1ccccc1)C2 (stereo unspecified),-1.09,0.63
CC(C)NC(=O)CSc1nnc2c3c4c(sc3ncn12)CCCC4,-1.44,1.32
CCc1[nH]c(=S)c(C#N)c(C(F)(F)F)c1C,0.82,-0.19
O=C(NCCc1cccs1)c1cnn2c3c(cnc12)CCCCCC3,·,0.33
Cc1ccc(-c2nc(SCC(=O)c3ccccc3)[nH]c(=O)c2C#N)cc1,2.13,-0.33
O=C(Nc1ccc2nc3n(c(=O)c2c1)CCCCC3)C(=O)N1CCCC1,0.57,-0.6
COc1ccc(Oc2coc3cc(OC(=O)c4ccc(OC)cc4)ccc3c2=O)cc1,0.14,1.67
CCC(C(=O)Nc1ccc(F)cc1F)n1sc2ccccc2c1=O (stereo unspecified),-1.25,1.94
COc1ccc2c(c1)CC(C(=O)Nc1ccc(OC)cc1OC)CO2 (stereo unspecified),·,1.45
O=C(C1c2ccccc2C(=O)N2CCc3ccccc3C12)N1CCC(N2CCCCC2)CC1 (stereo unspecified),-0.57,·
O=c1[nH]nc(-c2ccccc2)nc1Cc1ccc(Br)cc1,·,2.32
COC(=O)Cn1c2ccccc2c2nc(C)sc21,1.42,·
CCOC(=O)c1c(NC(=O)Nc2ccc(Cl)cc2)sc(C)c1-c1ccccc1,-1.64,·
COc1cccc2sc(N(CCN(C)C)C(=O)c3nc4ccccc4s3)nc12,·,1.24
CCOC(=O)c1c(N)sc(SSc2sc(N)c(C(=O)OCC)c2C)c1C,4.41*,·
COc1ccc(N2CCN(C3CCCCC3NS(=O)(=O)c3ccc(Cl)cc3)CC2)cc1 (stereo unspecified),-1.48,0.53
Cc1nn(C)c2sc(C(=O)NCc3ccc(N4CCN(C)CC4)cc3)cc12,0.44,·
CCOC(=O)C1=C(C)NC2=C(C(=O)CC(c3cccs3)C2)C1c1cccs1 (stereo unspecified),-0.41,0.96
CCCCN(CC)CCCNC(=O)c1sc2nc3n(c(=O)c2c1C)CCCC3,·,-0.01
Cc1ccc(N2CC(O)=C(c3nc4ccccc4c(=O)[nH]3)C2=N)cc1C,-7.73,0.01
CCCNC(=O)Cn1cc(OC)c(=O)cc1CSc1ncccn1,·,2.43
Cc1cc(C)cc(Nc2cc(C)nc3nncn23)c1,-1.6,0.04
CCn1c(C)c(C2=CCN(S(=O)(=O)c3ccc(Br)cc3)CC2)c2ccccc21,0.21,-4.76
Cc1nnc(N2C(=O)C(=O)/C(=C(/O)c3ccccc3)C2c2ccc(Cl)cc2)s1 (stereo unspecified),-3.11,·
c1cncc(-c2nc3c4ccccc4nc(NC4CCCC4)n3n2)c1,1.29,0.93

# Looked up above:
# O=C(NCCc1cccs1)c1cnn2c3c(cnc12)CCCCCC3 in TAR Tat displ → 0.33
# Cc1ccc(-c2nc(SCC(=O)c3ccccc3)[nH]c(=O)c2C#N)cc1 in TAR Tat displ → -0.33

# Later entries:
SMILES,CDC25B CDK2 inh,TAR Tat displ
Clc1ccc(CNc2ncnc3onc(-c4cccc(Cl)c4)c23)cc1,·,0.98
COc1ccccc1-c1nn2c(Cc3ccccc3)nnc2s1,2.32,-0.46
N#Cc1cccc2c(Oc3ccccc3)cc(C(F)(F)F)nc12,-0.47,·
Cc1ccc(NS(=O)(=O)c2c(C)[nH]c(=O)[nH]c2=O)cc1F,·,1.47
C=CCNc1nc2c(c(=O)n(C)c(=O)n2C)n1Cc1ccccc1,-1.16,·
Cc1ccc(-c2nc(N)n(C(=O)C(C)(C)C)n2)cc1,0.21,0.56
CCOC(=O)c1c(C)n(C)c2c1cc(O)c1ccccc12,-2.62,-1.41
O=C(Cc1ccc(F)cc1)Nc1c(C(=O)N2CCCC2)oc2ccccc12,·,0.55
COc1ccc(-c2ccc(/C=C/c3cc(C(F)(F)F)[nH]c(=O)n3)o2)cc1Cl,-0.59,-0.26
COc1ccc(C2/C(=C(\O)c3ccc(Cl)cc3)C(=O)C(=O)N2c2nnc(C)s2)cc1OC (stereo unspecified),-0.24,-3.26
Cc1ccc(CNCCSc2nnnn2-c2ccccc2)cc1,1.3,0.74
OCCCCCNc1ncnc2sc3c(c12)CCCC3,-2.35,-0.23
O=C1Nc2ccccc2S(=O)(=O)N1Cc1cccc(Cl)c1,·,0.62
Cc1nc2c([nH]c3ccc(F)cc32)s1,0.41,·
CCCSc1nc2c(c(=O)[nH]1)C(c1ccccc1)C(C(=O)OCC)=C(C)N2 (stereo unspecified),-1.6,0.52
CNc1nc(N2CC(C)CC(C)C2)nc(N)c1[N+](=O)[O-] (stereo unspecified),·,1.31
O=C(CN1C(=O)COc2ccc(S(=O)(=O)Nc3ccccc3)cc21)N1CCc2ccccc21,·,0.87
Cn1nc([N+](=O)[O-])nc1Sc1ccc(C(C)(C)C)cc1,-1.04,0.48
c1ccc(-c2nc3c4c5c(sc4ncn3n2)CCCCC5)cc1,-0.91,·
CCOC(=O)c1c(NC(=O)c2ccncc2)sc2c1CCC2,-0.36,0.14
CCCN1CCN(C(=O)CN2C(=O)COc3ccc(S(=O)(=O)N(CC)CC)cc32)CC1,-0.52,0.49
CCCS(=O)(=O)NCCc1csc(-c2cccc(F)c2)n1,·,-0.61
Cc1ccc(C(=O)CC2(O)C(=O)N(CCc3ccccc3)c3ccc(Br)cc32)o1 (stereo unspecified),-0.87,-0.33
O=C(OCc1ccc2c(c1)OCO2)OCc1ccc2c(c1)OCO2,-1.42,·
Cc1cc2c3c([nH]c2cc1S(=O)(=O)N1c2ccccc2CC1C)CCCC3=O (stereo unspecified),·,-1.9

# Next compounds.
SMILES,CDC25B CDK2 inh,TAR Tat displ
NNC(=O)CSc1nc2cccnc2s1,-0.07,·
COCCCNc1nc2c(-c3cccc(Br)c3)nnn2c2ccccc12,-0.77,0.36
CN(C)C(=S)Nc1ccc(Br)c(Cl)c1,0.87,·
Cc1cc(C)n(CCc2nc3c4ccccc4nc(NCCCOC(C)C)n3n2)n1,-0.32,0.14
COc1cccc2sc(N(CCCN(C)C)C(=O)c3nc4ccccc4s3)nc12,·,12.5
CC(C)c1nn2c(=O)cc(CSc3ccccc3N)nc2s1,·,0.26
CCC(C)NC(=O)c1noc2c1CCc1sccc1-2 (stereo unspecified),·,0.29
CC(C)Cn1cc(NC(=O)N(Cc2ccco2)C(C)c2ccccc2)c2ccccc2c1=O (stereo unspecified),·,0.06
CCCN1C(=O)c2oc3cc(C)cc(C)c3c(=O)c2C1c1cccc(O)c1 (stereo unspecified),-2.15,1.52
CC(C)NC(=O)CSc1nc2ccccc2[nH]1,-1.09,1.85
O=C(CCc1nc2cccnc2n1-c1ccccc1)Nc1ccc(Br)cc1F,-0.09,0.33
CC(C)n1c(C(F)(F)F)nc2cc(C(=O)N3CCC(O)CC3)ccc21,-2.3,·
CCOc1cc(/C=c2\sc3nc4ccccc4n3c2=O)ccc1OCc1ccccc1F,-2.7,·
CCCCNc1nc(C(C)C)c2c(c1C#N)CC(C)(C)OC2,-2.55,-0.6
CC1=C(c2ccc(F)cc2)S(=O)(=O)N=C1N1CC(C)CC(C)C1 (stereo unspecified),·,-0.93
CCCc1nc2sc3c(NCC(C)C)ncnc3c2c2c1COC(C)(C)C2,0.62,1.31
C=CCn1c(SCC(=O)N2CCc3ccccc32)nnc1-c1ccc(Cl)cc1,-2.33,·
COc1ccc(CNS(=O)(=O)c2ccc(-c3cnc(C4CC4)o3)cc2)cc1,·,0.67
O=C(CSc1nccn1C1CCCCC1)Nc1ccc(Cl)cc1,·,0.32
CCC(Sc1ccc2nnc(-c3ccccc3)n2n1)C(=O)OC (stereo unspecified),0.34,·
Cc1ccccc1-c1nn2c(Cn3nnc4ccccc43)nnc2s1,0.8,2.9
O=C1CC(c2ccc(OCCc3ccccc3)cc2)c2cnn(-c3nc4ccccc4s3)c2N1 (stereo unspecified),·,1.3
COC(=O)c1nc2n(n1)C(c1ccc(C)cc1)C(C(=O)OC1CCCCC1)=C(C)N2 (stereo unspecified),1.62,·
Cn1c(=O)c2c(nc(N3CCC(C(N)=O)CC3)n2CCSc2nc3ccccc3o2)n(C)c1=O,-1.42,·
COc1ccc(C(=O)n2c(=S)nc3ccc(Cl)cn32)cc1,-0.33,·

# Later entries.
SMILES,CDC25B CDK2 inh,TAR Tat displ
CNC(=O)c1c(NC(=O)c2nc(S(C)(=O)=O)ncc2Cl)sc2c1CCCC2,0.34,-0.54
Cn1c(NCc2ccco2)nc2c1c(=O)n(Cc1ccccc1Cl)c(=O)n2C,-0.42,-1.27
CCCc1cc(N2CCN(c3ccc(OC)cc3)CC2)n2cnnc2n1,-2.48,2.1
Cc1cc(-c2ccc(S(=O)(=O)N3CCN(c4ccc(Cl)cc4)CC3)s2)on1,·,1.47
Cc1nn(CC#N)c(C)c1Br,-0.76,·
Cn1c(=O)oc2cc(S(=O)(=O)N3CCCC(C(=O)NCCN4CCOCC4)C3)ccc21 (stereo unspecified),-0.41,·
O=C(CCCN1C(=O)c2cccnc2Sc2ccccc21)N1CCCC1,·,-1.76
O=C1NC(c2ccc(F)cc2)C(C(=O)c2ccc(Cl)cc2)C(O)(C(F)(F)F)N1 (stereo unspecified),-0.3,·
Cc1ccc(S(=O)(=O)c2cnc3ccc(Cl)cc3c2N2CCCC2)cc1,-1.93,-0.99
O=S(=O)(NCc1cc(C(F)(F)F)cc(C(F)(F)F)c1)c1ccc(F)cc1F,-1.43,·
Cc1cc(C)n(Cc2c(C(=O)N3CCN(c4ncccn4)CC3)noc2C)n1,·,1.48
O=C(C1=C(O)C(=O)N(CCCN2CCOCC2)C1c1ccncc1)c1cccs1 (stereo unspecified),-0.39,-0.85
COCCNc1oc2c(c1-c1cccc(Cl)c1)c(=O)oc1ccccc12,·,0.62
CCc1nn2c(=O)cc(COC(=O)c3ccc(C(C)(C)C)cc3)nc2s1,·,-0.89
COC(=O)CSC1=C(C#N)C(c2ccc(O)cc2)CC(=O)N1 (stereo unspecified),-1.44,-0.14
COCCNC(=O)NCc1ccc2ncccc2c1,·,0.75
Cn1cc(NC(=O)Nc2ccc(Cl)cc2)c2ccccc2c1=O,·,-0.62
CCOc1ccccc1NC1=C(Cl)C(=O)c2ccccc2C1=O,-1.26,·
O=S1(=O)c2ccccc2NC(c2ccc(Br)cc2)N1Cc1ccccc1 (stereo unspecified),-1.1,·
Cc1ccc2oc(C(=O)Nc3onc4c3CCCC4)c(C)c2c1,1.09,-0.52
C=CCNc1ncnc2c1cnn2-c1ccc(C)cc1,·,1.56
O=C(NCc1ccc2c(c1)OCO2)C1C2C=CC3(CN(Cc4cccs4)C(=O)C13)O2 (stereo unspecified),-0.03,·
Cc1ccc(N2CCn3c2nc2c3c(=O)n(CC(=O)O)c(=O)n2C)cc1C,-5.62,2.56
Cn1nnnc1SCCNCc1ccc(Br)cc1,-2,-0.07
Cc1ncc(CSSCc2cnc(C)c(O)c2CO)c(CO)c1O,4.32,·

# (listing goes on)
SMILES,CDC25B CDK2 inh,TAR Tat displ
Cc1ccc(SCC2=NN(c3nc(C)cc(C)n3)C(=O)C2)cc1,-1.77,-1.77
C=CCN1C(=O)C(O)(CC(=O)c2ccc(C)cc2)c2ccccc21 (stereo unspecified),-2.1,-0.04
Cc1ccc2cccc(OC(=O)c3ccco3)c2n1,-2.07,1.4
Fc1ccc(-c2csc3ncnc(NCc4ccco4)c23)cc1,·,0.52
CCC(COc1nnnc2ccccc12)NC(=O)c1cnc(C)cn1 (stereo unspecified),-1.47,-0.45
C#CCN1C(=O)C(O)(CC(=O)c2ccc3c(c2)CCCC3)c2ccccc21 (stereo unspecified),-0.73,0.67
Cc1nnsc1-c1noc(CS(=O)(=O)c2ccc(Cl)cc2)n1,-4.03,·
CC(C)NC(=O)n1ncc(S(=O)(=O)c2ccc(Cl)cc2)c1-c1ccc(Cl)cc1,-1.33,·
CN(C)CCCN(C(=O)c1ccc(F)cc1)c1nc2ccc(F)cc2s1,·,0.79
CN1CN=C(SCc2ccc(Cl)cc2Cl)NC1,-0.34,·
Cc1ccc(S(=O)(=O)c2[nH]c(-c3ccccc3)nc2SC(C)C(=O)O)cc1 (stereo unspecified),-0.88,0.74
CC(C)n1cnc2nc(CSc3ccc(NC(=O)c4cccs4)cc3)cc(=O)n21,-2.09,-0.91
c1ccc(OCc2nnc3sc(C4COc5ccccc5O4)nn23)cc1 (stereo unspecified),-1.38,-0.19
CCCCN(C)C(=O)c1sc2nc(C)nc(N3CCCCC3)c2c1C,0.14,·
Cc1cc2c(cc1C)CN(c1cccc(Cl)c1)C2,-0.77,-0.08
O=C(NCc1ccc(/C=N\NC(=O)C(=O)Nc2ccccc2Br)o1)C(=O)Nc1ccccc1,-1.26,·
CCCN(CCC)C(=O)Cn1c2ccccc2c2nc(=O)cc(C)n21,-0.58,3.71

# Entries shown so far with two or more sulfur atoms (14):
SMILES,CDC25B CDK2 inh,TAR Tat displ
CC(C)NC(=O)CSc1nnc2c3c4c(sc3ncn12)CCCC4,-1.44,1.32
COc1cccc2sc(N(CCN(C)C)C(=O)c3nc4ccccc4s3)nc12,·,1.24
CCOC(=O)c1c(N)sc(SSc2sc(N)c(C(=O)OCC)c2C)c1C,4.41*,·
CCOC(=O)C1=C(C)NC2=C(C(=O)CC(c3cccs3)C2)C1c1cccs1 (stereo unspecified),-0.41,0.96
CCCS(=O)(=O)NCCc1csc(-c2cccc(F)c2)n1,·,-0.61
NNC(=O)CSc1nc2cccnc2s1,-0.07,·
COc1cccc2sc(N(CCCN(C)C)C(=O)c3nc4ccccc4s3)nc12,·,12.5
CC(C)c1nn2c(=O)cc(CSc3ccccc3N)nc2s1,·,0.26
CNC(=O)c1c(NC(=O)c2nc(S(C)(=O)=O)ncc2Cl)sc2c1CCCC2,0.34,-0.54
Cc1cc(-c2ccc(S(=O)(=O)N3CCN(c4ccc(Cl)cc4)CC3)s2)on1,·,1.47
Cc1ncc(CSSCc2cnc(C)c(O)c2CO)c(CO)c1O,4.32,·
Cc1nnsc1-c1noc(CS(=O)(=O)c2ccc(Cl)cc2)n1,-4.03,·
Cc1ccc(S(=O)(=O)c2[nH]c(-c3ccccc3)nc2SC(C)C(=O)O)cc1 (stereo unspecified),-0.88,0.74
CC(C)n1cnc2nc(CSc3ccc(NC(=O)c4cccs4)cc3)cc(=O)n21,-2.09,-0.91

# Screens (PubChem BioAssay)
